T cruzi repl: blocks replication of Trypanosoma cruzi; T. cruzi beta-gal in NIH3T3, luminescence, 90 h; inhibition, % (test concentration not listed); 1.4% of 300,000 active; AID 1885;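 active = mean inhibition across valid replicates above about 55%, limit read from the data; inconclusive = mean below that limit but half or more replicates reach it; inactive = mean below it, under half of replicates reach it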;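 note: signal also drops with host cell toxicity which is not excluded here; 0% = plate median of DMSO wells and 100% = zero luminescence signal; higher percent means less beta-gal luminescence so fewer parasites; stock transfer was 50 nL into about 50 µL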
LANA-H2B inh: blocks KSHV LANA binding to histone H2A/H2B; Q9QR71; cell-free LANA-H2A/H2B peptide, fluorescence polarization; inhibition, % (concentration not given with the values); 0.6% of 320,000 active; in the data active = inhibition mostly above about 10%, no sharp cut-off; inactive = mostly below about 6.7%;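 note: stock transfer was 7.5 nL into about 10 µL; 0% = median of vehicle wells and 100% = median of positive control wells; one replicate is shown; the record names a cut of 25% in any replicate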
Beta apoptosis: beta cell apoptosis inhibition | 0.8% of 300,000 active | protection from apoptosis, % (test concentration not listed) | AID 435005 | INS-1E cytokine-induced death, ATP luminescence, 48 h; percent of positive-control rescue, neutral wells zero;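 active = all replicates at 75% or more, or half of them and the mean; inconclusive = half reach 75% but not the mean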;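 note: 0% = cytokine-treated negative control wells and 100% = positive control rescue; higher means more ATP so stronger rescue from cytokine killing; wells of about 40 µL received 100 nL stock; the first replicate is given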
UCH37 DUB inh: inhibitors of human deubiquitinating enzyme UCH37; Q9Y5K5; purified proteasome/UCH37, Ub-AMC cleavage fluorescence; inhibition, % (no concentration beside the values); 0.33% of 330,000 active;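 active = mean of two replicates above 20%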;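 note: 0% = compound-free wells with enzyme and 100% = wells lacking proteasome; stock transfer was 100 nL into about 20 µL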
Target sequence (Q9Y5K5 whole entry, looked up): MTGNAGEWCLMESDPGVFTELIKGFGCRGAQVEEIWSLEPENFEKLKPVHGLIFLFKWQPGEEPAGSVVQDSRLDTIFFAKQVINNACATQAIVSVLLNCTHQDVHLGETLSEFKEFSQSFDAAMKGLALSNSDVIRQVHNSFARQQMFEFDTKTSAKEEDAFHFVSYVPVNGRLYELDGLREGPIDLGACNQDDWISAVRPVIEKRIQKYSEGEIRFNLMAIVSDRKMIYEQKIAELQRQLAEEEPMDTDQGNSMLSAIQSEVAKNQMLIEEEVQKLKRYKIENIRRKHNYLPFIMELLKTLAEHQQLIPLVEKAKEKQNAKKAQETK
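System: Proteasome-associated human UCH37 deubiquitinase; Input: 0.15 nM proteasome in added enzyme buffer; Also added: Ub-AMC substrate from 1 µM stock; Incubation: 30 min compound-proteasome preincubation then 25 min substrate reaction, room temperature; Detection: fluorescence, ex 355 nm, em 460 nm; Read-out: % inhibition of Ub-AMC cleavage fluorescence; Benchmarks: no-proteasome and no-compound wells.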
A1 inh: inhibitors of the anti-apoptotic protein A1, read as caspase activation; MEF A1-2A-BIM cells, Caspase-Glo 3/7 luminescence, 3 h; percent of clofoctol response, vehicle zero; caspase activation, % (concentration not given with the values); 0.066% of 330,000 active;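 active = over half of replicate activation scores above 10%, or exactly half above 10 with the replicate mean above 10; inconclusive = replicate mean below 10 yet half the replicates above 10; inactive = over half of replicates below 10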;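 note: wells of about 30 µL received 50 nL stock; many hits fall short of the cut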
Calb FLC: affects C. albicans growth with fluconazole. C. albicans CaCi-2 (fluconazole-resistant clinical isolate) + fluconazole, Alamar Blue growth, 48 h. growth inhibition, % (no concentration beside the values). 0.57% of 300,000 active;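 active = most replicates above 75%; inconclusive = exactly half above 75%; inactive = most below 75%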;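 note: all wells also contain fluconazole at 8 µg/ml as a sub-toxic cotreatment; 0% = median of DMSO wells and 100% = median of geldanamycin control wells; wells of about 8 µL received 7.5 nL stock; the first replicate is given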
B2AR ag: agonists of human beta-2 adrenergic receptor inducing internalization. P07550. Am2.2-beta2AR cells, FAP receptor internalization, flow cytometry; reference of the scale not given here. response, % (test concentration not listed). 0.43% of 340,000 active. AID 504454;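 active = response above a set limit, near 3 SD of response in nonfluorescent compounds, cut at about 42% in these data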;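 note: stock transfer was 100 nL into about 11 µL; a reference agonist was the positive control; negative values mostly stem from fluorescent compounds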
Target sequence (P07550 whole entry, looked up): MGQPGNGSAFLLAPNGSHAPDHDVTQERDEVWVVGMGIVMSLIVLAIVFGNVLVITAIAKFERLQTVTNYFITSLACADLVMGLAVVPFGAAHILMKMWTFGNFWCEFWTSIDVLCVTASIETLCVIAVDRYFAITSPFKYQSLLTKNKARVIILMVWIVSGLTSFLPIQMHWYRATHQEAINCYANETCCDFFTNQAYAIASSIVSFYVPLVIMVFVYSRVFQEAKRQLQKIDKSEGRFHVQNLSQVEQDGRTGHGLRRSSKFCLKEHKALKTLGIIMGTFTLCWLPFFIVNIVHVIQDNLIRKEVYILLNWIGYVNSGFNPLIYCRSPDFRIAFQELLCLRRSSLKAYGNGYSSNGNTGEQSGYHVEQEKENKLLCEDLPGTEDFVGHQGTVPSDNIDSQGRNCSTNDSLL
RanGTP-Imp inh: inhibitors of RanGTP-importin-beta interaction, primary screen, biochemical, FRET, CFP-Ran, YFP-importin-beta, homogeneous. inhibition, % (no concentration beside the values). AID 2216. 1.1% of 300,000 active. cell-free CFP-Ran/YFP-importin-beta FRET ratio;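 active = most replicates above 15%; inconclusive = exactly half above 15%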;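 note: 0% = DMSO wells and 100% = Ran loaded with GDP instead of GTP; wells of about 40 µL received 100 nL stock; the first replicate is given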
* = called active by the depositor; i = inactive; ? = inconclusive; . = not tested or not shown.

SMILES	T cruzi repl	LANA-H2B inh	Beta apoptosis	UCH37 DUB inh	A1 inh	Calb FLC	B2AR ag	RanGTP-Imp inh
Cc1cc(N)n(-c2ccccc2C)n1	0	-3.8	-3	6.1	2.0	-23	3	1.3
Cc1ccc(-n2c3c(cc(C(=O)N4CCN(C)CC4)c2=O)C(=O)CC(C)(C)C3)cc1	-7	6.0	-5	3.2	-0.3	-9	-2	1.0
CN(C(=O)COC(=O)C1CSC2(C)CCC(=O)N12)c1ccccc1 (configuration not stated)	-7	3.1	.	1.3	0.8	0	-9	11
COC(=O)CCCCCCCCC(O)CN(C)C (configuration not stated)	-12	2.9	-3	-0.8	0.4	-2	-3	?
Cc1ccsc1/C=N\NC(=O)Cn1nnc2ccccc21	-1	2.9	-5	.	0.8	18	0	?
CCOC(=O)CNC(=O)CSc1nnc(-c2ccc(OC)cc2)n1CC	-1	0.0	-4	-0.5	-0.3	-3	3	1.4
COC(=O)c1c(NC(=O)c2nc3nc(C)cc(C(F)F)n3n2)sc2c1CCC2	44	-1.5	14	-1.3	0.8	4	-1	-1.6
O=C(CN1CCN(C(=O)C2CCCO2)CC1)Nc1c(Cl)cccc1Cl (configuration not stated)	-2	-2.9	-3	5.5	0.6	1	1	2.7
CC(=O)C(Sc1ccc2nnc(-c3ccc(F)cc3)n2n1)C(C)=O	-4	4.3	-3	7.6	0.0	-12	8	3.0
Cc1cc(Cl)ccc1NC(=S)N1CCOCC1	12	0.5	.	0.0	0.0	7	2	-0.6
CCN(c1ccccc1)S(=O)(=O)c1ccc(OC)c(NC(=O)C2CC(=O)N(Cc3ccccc3)C2)c1 (configuration not stated)	26	1.1	-3	3.2	-0.9	10	13	3.7
CC1CCCCC1NC(=O)c1ccc(-n2cncn2)c([N+](=O)[O-])c1 (configuration not stated)	-6	1.4	2	2.8	-1.6	0	3	2.1
COCC(C)n1c(COc2ccccc2F)nnc1SCC(=O)Nc1oc(C)c2c(C)n[nH]c(=O)c12 (configuration not stated)	-2	1.7	0	1.8	-0.2	-2	-3	0.4
CCN(CC)CCCN(Cc1cc2cc3c(cc2[nH]c1=O)OCO3)C(=S)NCc1ccco1	10	4.5	-5	-192	-0.5	-8	-1	-4.7
Cc1cc(-c2ccccc2)nc(SCc2ccc(C(=O)O)o2)n1	-5	1.6	-2	.	0.2	-5	6	3.7
COc1ccc(OC)c(NC(=O)C2CCCNC2=O)c1 (configuration not stated)	-7	5.7	-1	3.1	0.2	-2	10	0.8
Cc1cc(C=NCCCO)c(C)n1-c1cc(Cl)ccc1Cl	-9	.	.	-0.1	.	4	2	1.0
CC(CCc1ccccc1)NC(=O)COC(=O)c1ccc(NC(N)=O)cc1 (configuration not stated)	-10	1.4	-3	3.2	-1.3	-7	-5	-0.6
Clc1ccc(-c2nn3cnnc3s2)c(Cl)c1	-1	-2.3	.	5.6	0.4	-11	-13	-3.2
O=C(Nc1nc2ccccc2s1)C1CC(=O)N(c2ccc(Br)cc2)C1 (configuration not stated)	-15	0.9	-5	3.0	0.1	-14	-11	-3.1
O=C(COC(=O)c1ccc([N+](=O)[O-])s1)NCc1ccc(F)cc1	10	-0.4	-1	65*	0.6	36	5	2.1
O=C(NNC(=S)NCc1ccccc1)c1cccc([N+](=O)[O-])c1	-11	-1.5	-4	5.8	-0.2	35	1	-0.8
COC(=O)Nc1nnc(COc2ccccc2)s1	-1	-1.9	-9	.	0.3	-1	-3	-0.6
CC(C)(C)c1ccc(C2(C)NC(=O)N(CC(=O)c3ccc[nH]3)C2=O)cc1 (configuration not stated)	4	2.4	1	0.1	1.5	2	3	5.1
C=CCn1c(SCC(=O)Nc2cc(Cl)ccc2C(=O)O)nc2sc(C)c(C)c2c1=O	.	4.8	-5	.	0.2	.	10	.
O=C(Oc1cc(Cl)cc(Cl)c1)c1cnc2n(c1=O)CCS2	-23	-1.6	-7	7.1	0.0	-6	2	?
CCCN1C(=O)c2ccc(C(=O)NC3CCCCC3)cc2C1=O	-15	-1.1	0	3.1	-2.1	2	1	-1.7
Cc1noc(C)c1COc1cccc(C(=O)OC(C)C(=O)Nc2ccc3c(c2)OCO3)c1 (configuration not stated)	-6	0.7	6	1.0	1.9	-14	-2	-1.4
COC(=O)Cn1c(N)[n+](Cc2ccccc2)c2ccccc21	-3	4.8	-5	-2.1	-2.3	3	-5	-0.4
CNC(=O)CCc1nc(-c2ccc(C(C)(C)C)cc2)no1	-5	-2.6	-3	3.1	0.7	12	-4	-1.6
C=CCn1c(N)cc(=O)nc1SC(CC)C(=O)Nc1ccc(C(C)=O)cc1 (configuration not stated)	2	-3.5	-2	2.6	-0.5	-1	-1	3.4
Cc1ccc([N+](=O)[O-])cc1-c1ccc(/C=N/NC(=O)c2cc3c(ccc4ccccc43)o2)o1	28	8.2	3	.	-0.6	1	5	0.5
COc1ccc(S(=O)(=O)NC2CC(C)(C)NC(C)(C)C2)cc1C(C)C	-18	0.0	-6	3.0	0.8	-1	0	-0.1
COc1ccc(S(=O)(=O)Nc2ccccc2OC)cc1N=Nc1c(O)[nH]c(=S)[nH]c1=O	.	0.3	0	6.9	-0.7	.	17	.
O=c1ncn(-c2ccc(F)cc2)c2ncccc12	1	-5.8	-21	5.2	0.1	8	-4	-0.1
CCCCOc1ccc(/C=C/C(=O)OCC(=O)c2c(N)n(C)c(=O)n(C)c2=O)cc1OCC	23	-1.4	7	-5.4	-0.1	3	0	4.8
Cn1c(=O)[nH]c(=O)c2c1nc(Br)n2CCCSc1nc2ccccc2o1	63*	1.4	2	1.7	-0.6	14	15	1.5
Cc1nc(-c2ccc(C#N)cc2)cs1	5	2.0	-3	3.5	-0.2	2	9	3.4
CCOc1cc(/C=N\NC(=O)Cc2ccccc2)ccc1OCC(=O)Nc1ccc(C)c(C)c1	.	1.4	0	.	-0.1	.	10	.
c1ccc2c(Nc3nnc(-c4ccncc4)s3)cccc2c1	57*	3.2	1	3.2	-2.3	5	10	-1.7
Cc1cc(C)n(-c2ccc(F)cc2)c(=O)c1C(=O)O	-8	-4.9	4	2.5	-0.9	-5	0	1.1
O=C(c1ccc2c(=O)n(-c3ccccc3)c(=S)[nH]c2c1)N1CCN(c2ccccc2)CC1	.	-0.9	4	0.6	1.2	.	9	.
Oc1ccc(Br)cc1/C=N/n1cnc2ccccc21	1	-0.2	-7	.	-1.4	-52	10	6.5
O=C(O)c1cc2ccc3ccccc3c2oc1=O	-48	4.9	12	i	-0.1	20	-3	?
CCN(CC)CCN1C(=O)c2ccccc2NC1c1ccc(N(C)C)cc1 (configuration not stated)	-26	-1.6	0	-3.6	0.4	0	-2	2.4
Cc1ccc(-c2nc(C#N)c(NCCN3CCCCC3)o2)cc1	12	3.2	-1	-118	-0.4	?	1	0.0
O=C(Cc1n[nH]c(=O)c2ccccc12)OCc1c(Cl)cccc1Cl	-4	1.5	7	2.6	0.8	1	-7	0.0
COc1ccc(CNC(=O)CN2CCN(S(=O)(=O)c3c(C)c(C)cc(C)c3C)CC2)cc1OC	.	1.5	-4	-0.1	0.8	.	8	.
CCOC(=O)Cn1c(Br)nc2c1c(=O)[nH]c(=O)n2C	-8	-1.3	-8	4.9	0.5	-2	3	-2.0
CCOC(=O)C1CCN(C(=O)Cn2cnc3sc(C)c(S(=O)(=O)N4CCOCC4)c3c2=O)CC1	-3	1.0	-3	0.7	0.5	-2	3	-1.7
CC1=CC2=NC(=O)/C(=C\c3cc(C)n(-c4ccccc4)c3C)C(=N)N2O1	0	2.3	1	-24	0.1	0	-8	-3.7
COC(=O)Cn1c(=NC(=O)c2cc(OC)c(OC)c(OC)c2)sc2cc(OC)ccc21	6	-3.7	-4	-150	-0.2	-8	23	4.1
COc1ccc(C(=O)NCc2cccc(Cl)c2)cc1S(=O)(=O)N1CCOCC1	.	-7.5	-1	-0.1	-1.3	.	-3	.
O=C(O)Cn1ncc2c1-c1ccoc1CC2	1	7.0	-12	1.5	-0.2	10	-3	-0.1
COc1ccc2oc(C(=O)OCC(=O)NC(=O)NC(C)C)c(C)c2c1	-11	0.8	-10	-29	-4.7	3	0	?
CCCCCCCC/C=C\CCCCCCCC(=O)NCCc1ccc(O)c(O)c1	.	1.9	?	0.1	12*	.	34	.
COc1ccc(Nc2nc(Nc3ccc(OC)cc3)nc(SC3=NCCS3)n2)cc1	9	0.3	4	1.9	-0.4	9	6	2.3
O=C1NCCC12C(=O)Nc1ccccc12 (configuration not stated)	-21	11	-2	0.0	0.2	-1	-1	1.0
CCOC(=O)N1CCC(NC(=O)Cn2ncc3c2-c2cc(C)ccc2OC3)CC1	-8	2.4	-5	1.5	.	-6	2	1.6
CN1C(=O)c2ccc(NC(=O)c3c(C(=O)O)cccc3[N+](=O)[O-])cc2C1=O	-13	-1.8	0	-5.5	1.8	.	7	-3.0

Entries of single compounds, looked up by structure. Order of screens: T cruzi repl | LANA-H2B inh | Beta apoptosis | UCH37 DUB inh | A1 inh | Calb FLC | B2AR ag | RanGTP-Imp inh
Entry for CCOC(=O)C1CCN(C(=O)Cn2cnc3sc(C)c(S(=O)(=O)N4CCOCC4)c3c2=O)CC1 : -3 | 1.0 | -3 | 0.7 | 0.5 | -2 | 3 | -1.7
Entry for CCCCCCCC/C=C\CCCCCCCC(=O)NCCc1ccc(O)c(O)c1 : . | 1.9 | ? | 0.1 | 12* | . | 34 | .

New compounds follow.
SMILES	T cruzi repl	LANA-H2B inh	Beta apoptosis	UCH37 DUB inh	A1 inh	Calb FLC	B2AR ag	RanGTP-Imp inh
O=C(Nc1ccc(Cl)cc1)OCCn1nnnc1C(c1ccccc1)N1CCOCC1 (configuration not stated)	12	2.5	-2	0.3	-0.6	-13	-2	0.3
COc1ccc(NC(=O)Nc2c(C)n(C)n(-c3ccccc3)c2=O)cc1OC	-4	4.8	-1	2.6	0.1	1	1	-2.1
COC(=O)C(=C/C=C/c1ccco1)C(=O)OC	-16	1.6	-12	15	-0.8	5	7	-3.4
COc1ccc(CCNS(=O)(=O)c2ccc(OC)c(OC)c2)cc1OC	-1	4.7	.	-0.1	0.1	0	5	-2.6
NCCCC[C@H](NC(=O)C1CCNCC1)c1nnc(CN)o1	-7	-0.8	-2	.	-0.9	1	.	-0.9
O=C(Cc1ccc(Cl)c(Cl)c1)NC1CCCCCC1	3	-2.5	7	-1.2	0.0	3	-16	0.4
Nc1nc(CN2CCN(c3ccccc3F)CC2)nc(Nc2ccccc2)n1	-18	-0.6	-5	0.7	0.1	24	1	-2.9
CN(Cc1nccn1C)C(=O)CC1C(=O)NCCN1Cc1ccc(F)cc1Cl (configuration not stated)	-16	0.2	-2	-2.8	1.2	-6	-9	1.4
Cc1cccc(OCC(=O)N2CCN(C(=O)COc3ccc(Cl)cc3)CC2)c1	5	-1.1	-3	2.7	0.3	0	-1	5.1
O=C(NCC1CCCN1S(=O)(=O)c1ccccc1)c1cccc(Cl)c1 (configuration not stated)	13	-4.9	5	-0.3	0.9	3	-1	1.7
[N-]=[N+]=CC(=O)C(Cc1ccccc1)N1C(=O)c2ccccc2C1=O (configuration not stated)	-9	5.6	-5	3.7	-0.1	-5	2	1.4
